Beta2AR agonist: human beta-2 adrenergic receptor agonism by FAP; P07550; Am2.2-beta2AR cells, FAP receptor internalization, flow cytometry; reference of the scale not given here; response, % (no concentration beside the values); 0.43% of 340,000 active;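 active = response above a set limit, near 3 SD of response in nonfluorescent compounds, cut at about 42% in these data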;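 also: stock transfer was 100 nL into about 11 µL; a reference agonist was the positive control; negative values mostly stem from fluorescent compounds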
Target sequence (P07550 whole entry, looked up): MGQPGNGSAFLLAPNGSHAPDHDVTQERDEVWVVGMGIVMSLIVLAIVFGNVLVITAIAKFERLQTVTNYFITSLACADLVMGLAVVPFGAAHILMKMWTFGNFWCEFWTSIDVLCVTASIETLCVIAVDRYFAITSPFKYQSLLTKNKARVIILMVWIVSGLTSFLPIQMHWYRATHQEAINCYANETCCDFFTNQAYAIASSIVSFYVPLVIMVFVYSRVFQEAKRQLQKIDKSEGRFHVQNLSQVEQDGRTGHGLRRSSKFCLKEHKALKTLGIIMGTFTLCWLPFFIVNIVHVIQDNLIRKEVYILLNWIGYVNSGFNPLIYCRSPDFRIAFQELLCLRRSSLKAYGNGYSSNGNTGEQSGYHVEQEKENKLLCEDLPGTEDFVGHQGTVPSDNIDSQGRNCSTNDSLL
T cruzi repl: T. cruzi replication inhibition; T. cruzi beta-gal in NIH3T3, luminescence, 90 h; inhibition, % (test concentration not listed); 1.4% of 300,000 active;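 active = mean inhibition across valid replicates above about 55%, limit read from the data; inconclusive = mean below that limit but half or more replicates reach it; inactive = mean below it, under half of replicates reach it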;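 also: signal also drops with host cell toxicity which is not excluded here; 0% = plate median of DMSO wells and 100% = zero luminescence signal; higher percent means less beta-gal luminescence so fewer parasites; stock transfer was 50 nL into about 50 µL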
Calb FLC: C. albicans growth modulation with fluconazole | growth inhibition, % (test concentration not listed) | C. albicans CaCi-2 (fluconazole-resistant clinical isolate) + fluconazole, Alamar Blue growth, 48 h | 0.57% of 300,000 active;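 active = most replicates above 75%; inconclusive = exactly half above 75%; inactive = most below 75%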;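 also: all wells also contain fluconazole at 8 µg/ml as a sub-toxic cotreatment; 0% = median of DMSO wells and 100% = median of geldanamycin control wells; wells of about 8 µL received 7.5 nL stock; the first replicate is given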
Beta cell apopt: blocks beta cell apoptosis; INS-1E cytokine-induced death, ATP luminescence, 48 h; percent of positive-control rescue, neutral wells zero; AID 435005; 0.8% of 300,000 active; protection from apoptosis, % (test concentration not listed);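 active = all replicates at 75% or more, or half of them and the mean; inconclusive = half reach 75% but not the mean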;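 also: 0% = cytokine-treated negative control wells and 100% = positive control rescue; higher means more ATP so stronger rescue from cytokine killing; wells of about 40 µL received 100 nL stock; the first replicate is given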
ALR inh: inhibitors of human sulfhydryl oxidase ALR | purified ALR, DTT oxidation, H2O2 HRP-luminol luminescence | inhibition, % (test concentration not listed) | 3.8% of 290,000 active | AID 485317;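 active = mean and each replicate at 75% or more; inconclusive = only one of the two met; inactive = neither met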;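 also: stock transfer was 7.5 nL into about 7.5 µL; 0% = neutral wells and 100% = wells with inactivated enzyme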
Target sequence (P55789 whole entry, looked up): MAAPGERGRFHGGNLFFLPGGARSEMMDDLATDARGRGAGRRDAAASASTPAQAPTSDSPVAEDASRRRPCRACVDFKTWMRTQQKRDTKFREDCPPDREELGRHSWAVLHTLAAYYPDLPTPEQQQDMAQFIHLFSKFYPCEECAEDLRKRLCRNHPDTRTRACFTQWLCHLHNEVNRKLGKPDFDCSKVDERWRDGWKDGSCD
A1 inh: inhibitors of the anti-apoptotic protein A1, read as caspase activation | caspase activation, % (concentration not given with the values) | 0.066% of 330,000 active | AID 2462 | MEF A1-2A-BIM cells, Caspase-Glo 3/7 luminescence, 3 h; percent of clofoctol response, vehicle zero;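 active = over half of replicate activation scores above 10%, or exactly half above 10 with the replicate mean above 10; inconclusive = replicate mean below 10 yet half the replicates above 10; inactive = over half of replicates below 10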;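 also: wells of about 30 µL received 50 nL stock; many hits fall short of the cut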
LANA-H2A inh: blocks KSHV LANA binding to histone H2A/H2B; Q9QR71; cell-free LANA-H2A/H2B peptide, fluorescence polarization; inhibition, % (concentration not given with the values); 0.6% of 320,000 active; AID 2629; in the data active = inhibition mostly above about 10%, no sharp cut-off; inactive = mostly below about 6.7%;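 also: stock transfer was 7.5 nL into about 10 µL; 0% = median of vehicle wells and 100% = median of positive control wells; one replicate is shown; the record names a cut of 25% in any replicate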
Ecoli rRNA inh: inhibits bacterial ribosomal RNA function over humanized ribosomes; GFP signal change (wild-type ribosome), % (concentration not given with the values); 1.6% of 350,000 active; E. coli WT GFP vs humanized-ribosome RFP mutants, fluorescence, 24 h; hits give low values; DMSO median 0, no signal -100;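 active = significant combined selectivity score with lowered wild-type GFP, culture density cut under 30%, mutant RFP and density less affected; inactive = any of these conditions unmet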; also: one replicate is shown; some compounds called inactive have numbers as strong as hits
Ecoli rRNA inh OD600: recorded beside Ecoli rRNA inh, whose call it bears; OD600 change, %; measured here: OD600 growth;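 optical density of the mix in the first replicate; 0 = DMSO median and -100 = no signal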
Ecoli rRNA inh RFP: second read-out of Ecoli rRNA inh, no call of its own (marks repeat the call); RFP signal change, %; measured here: RFP humanized mutant strains;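 first replicate; 0 = DMSO median and -100 = no signal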
Starred values were filed as active, the others as inactive; ? = inconclusive; · = not tested or not shown; + = active, no number.

SMILES	Beta2AR agonist	T cruzi repl	Calb FLC	Beta cell apopt	ALR inh	A1 inh	LANA-H2A inh	Ecoli rRNA inh	Ecoli rRNA inh OD600	Ecoli rRNA inh RFP
CCN(CC(=O)NCc1ccco1)S(=O)(=O)c1ccc(OC)cc1	18	-12	-1	4	-7	1.5	2.3	10	14	1.3
CCN(C1CCS(=O)(=O)C1)S(=O)(=O)c1ccc(OC)c(OC)c1 (configuration not stated)	8	2	1	-2	-1	1.0	-1.2	7	1	-2.8
O=C(NC1CCCC1)c1cc(-c2ccc(Cl)cc2Cl)on1	-2	5	-23	3	2	0.0	3.5	3	3	0.8
CC(C)(C)c1ccc(C(=O)N2CCN(S(=O)(=O)c3ccc(Br)s3)CC2)cc1	3	·	·	1	-3	0.3	1.0	14	16	2.1
C=C(C)CSc1nc(N)c2c(C)c(C)sc2n1	-2	1	-11	-10	-6	-0.2	-1.8	·	·	·
COc1ccc(Cl)cc1Nc1nc(C)cc(C)c1C(N)=O	-5	6	0	0	-1	-0.1	-5.5	·	·	·
CCCCCNC(=O)CCCCn1c(=O)[nH]c2cc(OCC)c(OCC)cc2c1=O	-8	9	-2	-1	·	0.5	-7.5	·	·	·
CN(C)C(=O)COc1ccc(C(=O)/C=C/c2cccnc2)cc1	-2	-6	8	9	6	-0.9	4.5	-2	4	-2.8
CCCCC(=O)Nc1ccc(C(=O)NCCN2CCOCC2)cc1	1	-9	3	-3	-7	0.3	-3.9	15	10	3.5
Cc1cc(C(=O)NCCCN(C)C)c2ccccc2n1	-4	-7	-5	·	·	·	·	19	17	2.0
Cc1ccc(C(=O)Nc2c(C)cc(-c3ccccc3)oc2=O)cc1	-9	10	4	-3	-3	0.4	4.2	11	16	-1.8
O=C(CCC1COc2ccccc2O1)Nc1cccnc1 (configuration not stated)	-8	-13	-4	-6	-6	0.6	-7.8	·	·	·

The listing continues:
SMILES	Beta2AR agonist	T cruzi repl	Calb FLC	Beta cell apopt	ALR inh	A1 inh	LANA-H2A inh	Ecoli rRNA inh	Ecoli rRNA inh OD600	Ecoli rRNA inh RFP
CN(CC(=O)Nc1ccccc1Cl)C(=O)CSC(=S)N1CCCC1	-3	?	-4	0	·	1.2	-2.7	3	5	2.6
Cc1ccc2[nH]c3c(c2c1)CN(C)CC3	2	-13	-4	-5	-8	0.8	-15	·	·	·
CCS(=O)(=O)N1CCCC(C(=O)NCc2ccc(C)cc2)C1 (configuration not stated)	-2	-2	1	-5	-4	0.0	0.2	·	·	·
O=C1CC(N2CCSCC2)C(=O)N1CCc1ccccc1 (configuration not stated)	-6	-5	-9	2	1	-0.6	4.6	·	·	·
COc1ccccc1N(CC(=O)N(C)Cc1ccccc1)S(=O)(=O)c1cccs1	-1	·	·	-3	-3	-0.4	+	-15	-11	1.2
CCOc1cc(/C=C2/NC(=S)NC2=O)ccc1OCc1ccc([N+](=O)[O-])cc1	0	-2	2	41	20	0.4	0.0	·	·	·
Cn1c(Cc2ccccc2)n[nH]c1=S	-1	-27	1	·	6	0.3	-2.1	·	·	·
Cc1nnc(NC(=O)C2COc3ccccc3O2)s1 (configuration not stated)	10	0	-3	0	-6	-1.8	9.0	·	·	·
CCOC(=O)C1=C(C)NC(=S)NC1c1ccc(-c2ccc(Cl)cc2)o1 (configuration not stated)	-4	16	1	3	4	-0.3	-5.6	7	0	1.2
CCOc1ccccc1CN1CCN(Cc2cccc3nonc23)CC1CCO (configuration not stated)	11	21	-16	4	-11	-0.5	1.8	4	2	2.0
O=C1c2cc(S(=O)(=O)NCCCO)ccc2-c2ccc(S(=O)(=O)NCCCO)cc21	3	-8	4	5	2	-0.1	0.1	·	·	·
COCCN(C(C)=O)c1nnc(-c2cnccn2)s1	-10	-9	0	-7	-2	0.5	-1.9	·	·	·

The list goes on:
SMILES	Beta2AR agonist	T cruzi repl	Calb FLC	Beta cell apopt	ALR inh	A1 inh	LANA-H2A inh	Ecoli rRNA inh	Ecoli rRNA inh OD600	Ecoli rRNA inh RFP
CCOC(=O)c1c(CN(C)C)n(-c2ccccc2)c2cc(Br)c(OC)cc12	5	36	17	·	-18	0.8	-0.6	-54	-76	-26
Cc1cc(C)cc(N(CC(=O)Nc2cccc(C)n2)S(=O)(=O)c2c(C)noc2C)c1	4	2	4	·	-5	0.1	-2.2	-10	-14	-12
Cc1cc(=O)oc2c(C)c(OCC(=O)N3CCC(C(=O)O)CC3)ccc12	5	-7	-1	·	-12	-0.6	1.4	-1	8	-17
Cc1csc(CNC(=O)C2CCC(=O)N(CCCc3ccccc3)C2)n1 (configuration not stated)	3	3	-6	·	-17	·	·	10	13	1.2
O=C(CCn1cccc1)NCc1ccccc1	-12	-7	-11	-8	·	-0.1	3.5	·	·	·
Cc1ccc(-n2ccc(=O)c(C(=O)Nc3ccc(S(=O)(=O)Nc4nccc(C)n4)cc3)n2)cc1	1	8	·	-5	1	0.5	-4.5	19	19	6.3
CCc1ccc(C(=O)NNC(=O)C2CC(=O)N(c3ccc4c(c3)OCCO4)C2)cc1 (configuration not stated)	-8	·	·	-1	-1	0.3	3.0	-3	9	-1.1
CCCN(CCC)CCCNC(=O)c1cn(CCOC)c(=O)c2c1c1ccccc1n2C	4	-5	0	4	-5	-0.5	-4.9	·	·	·
O=C(/C=C/c1ccc(Cl)cc1Cl)n1cccn1	5	-16	0	-5	11	-0.7	0.1	·	·	·
CCOC(=O)CSc1c(-c2ccc(Cl)cc2)[nH]c2ccccc12	14	-20	31	-7	2	0.1	0.0	-6	-34	13
CN(C)Cc1ccc(O)c(CCc2ccccc2)n1	-3	-8	-7	0	-1	?	1.0	·	·	·
COc1ccc(-n2c(SCC(=O)N(C)C3CCS(=O)(=O)C3)nc3ccc(O)cc3c2=O)cc1OC (configuration not stated)	3	·	·	-2	68	0.9	7.0	4	11	-1.1

The listing continues:
SMILES	Beta2AR agonist	T cruzi repl	Calb FLC	Beta cell apopt	ALR inh	A1 inh	LANA-H2A inh	Ecoli rRNA inh	Ecoli rRNA inh OD600	Ecoli rRNA inh RFP
COc1ccc(OC)c(-c2cc(-c3cccnc3)nc(N)c2C#N)c1	3	-46	-6	3	-3	0.7	-9.9	4	5	11
CCCNC(=O)N1CCC(C(=O)c2cccc(F)c2)CC1	6	-8	-4	-2	9	-0.5	0.2	·	·	·
c1ccc(CSc2ccc(-c3ccc4c(c3)OCO4)nn2)cc1	2	-26	4	-3	-2	0.6	5.9	·	·	·
CC(=O)Nc1ccc(NC(=O)CCc2ccc(C)o2)cc1	-2	-8	5	-4	25	-0.1	-0.2	20	15	3.1
CCCN(CCC)CCNC(=O)CS(=O)Cc1nc(-c2ccc(C)cc2)oc1C (configuration not stated)	1	-22	-1	1	98*	0.1	-5.0	·	·	·
CC(=O)c1cccc(Nc2nc(N3CCOCC3)nc(N3CCOCC3)n2)c1	-15	9	-13	-7	-4	1.3	-1.2	-2	8	-3.4
Cc1cc(N2CCN(c3cccc(C)c3C)CC2)nc(-c2ccccc2)n1	1	8	7	-1	-1	-0.1	3.7	·	·	·
O=C(N/N=C/c1ccc(Cl)cc1Cl)c1ccc(-n2cnnn2)cc1	-3	·	·	-3	1	0.1	1.0	1	8	-2.7
O=C(O)c1ccccc1C(=O)Nc1cccc([N+](=O)[O-])c1	-2	-6	-2	·	-6	0.7	-3.0	15	18	0.3
COC(=O)c1c(NC(=O)CCc2ccc(C)o2)sc(C)c1C	2	23	-9	1	97*	-0.3	0.7	·	·	·
COc1cccc(-c2nc(CS(=O)CC(=O)NC(C)CCc3ccccc3)c(C)o2)c1 (configuration not stated)	4	1	0	4	98*	-0.8	0.8	-4	-16	9.0
Cc1ccc(OC(=O)COc2ccccc2C)cc1	-10	0	-8	-4	-8	1.6	-3.3	3	2	1.7

Continuation:
SMILES	Beta2AR agonist	T cruzi repl	Calb FLC	Beta cell apopt	ALR inh	A1 inh	LANA-H2A inh	Ecoli rRNA inh	Ecoli rRNA inh OD600	Ecoli rRNA inh RFP
CC(C)(C)NC(=O)c1ccc2c(c1)N(CC(=O)N1CCCCC1)C(=O)C(C)(C)O2	-5	4	15	0	-2	-0.4	2.9	-4	3	-0.6
O=C(CCC1CCCN(c2ncccn2)C1)N1CCN(c2ccccn2)CC1 (configuration not stated)	-8	17	3	6	·	-0.1	-3.0	-3	-1	-1.3
CCOCC(=O)N1CCc2ccccc21	1	4	-10	-1	-8	0.5	-3.7	·	·	·
CCCC(=O)C1=C(O)C(C(=O)OC)C(C)(C)CC1=Nc1ccc(C)cc1 (configuration not stated)	2	-10	5	3	-37	-0.2	5.2	-4	7	0.2
CC1CCCN(C(=O)Cc2cn(Cc3cccc(Cl)c3)c3ccccc23)C1 (configuration not stated)	-1	55*	-6	1	-1	0.5	11	-34	-29	-3.0
C=CCN=C(NC#N)SC	-2	-7	0	·	-3	-0.2	9.3	10	19	-2.0
COc1ccc(NC(=O)c2c(C)nn(Cc3ccccc3)c2Cl)cc1S(=O)(=O)N1CCOCC1	1	9	9	6	·	0.8	-2.4	-17	-14	1.3
Cc1ccc(SCC(=O)N2CCN(S(=O)(=O)c3cccs3)CC2)cc1	-1	·	·	1	-13	0.6	1.9	-3	-16	0.1
S=C(NC1CC1)N1CCN(C(=S)NC2CC2)CC1	-5	-24	1	-1	0	0.2	1.9	19	20	0.5
COC(=O)c1ccccc1NC(=O)C1CC(=O)N(c2ccc(OC)cc2)C1 (configuration not stated)	-4	-6	25	1	-11	-0.6	1.7	-17	-14	1.0
CCOCCCn1c(SCC(=O)N(C)C2CCS(=O)(=O)C2)nc2ccccc2c1=O (configuration not stated)	-3	-15	6	-3	-7	-0.5	-3.5	2	5	-3.8
CC[C@@H](C)[C@@H]1CN([C@@H](C)CN2CCC[C@H]2CN2C(N)=NC[C@@H]2Cc2ccccc2)C(=N)N1CCc1ccc(Cl)c(Cl)c1	-3	·	·	-1	11	0.4	-1.1	·	·	·

Assay outcomes (PubChem BioAssay)

Only part of the results is shown; the hit share may differ from the screen's.
